Compound activity deposited in PubChem by ICCB-Longwood Screening Facility, Harvard Medical School.
GIV Gai3 FP: blocks GIV peptide binding to rat Galpha-i3; P08753; Galpha-i3/FITC-GIV peptide fluorescence polarization, 90 min; hits give low values; scaled: aluminum fluoride 0%, vehicle 100%; percent of control (FP), % (test concentration not listed); 0.42% of 210,000 active;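 active = replicate mean at 85% of control or lower, very high polarization wells dropped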;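 also: wells of about 15 µL received 100 nL stock; the first replicate is given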
Target sequence (P08753 whole entry, looked up): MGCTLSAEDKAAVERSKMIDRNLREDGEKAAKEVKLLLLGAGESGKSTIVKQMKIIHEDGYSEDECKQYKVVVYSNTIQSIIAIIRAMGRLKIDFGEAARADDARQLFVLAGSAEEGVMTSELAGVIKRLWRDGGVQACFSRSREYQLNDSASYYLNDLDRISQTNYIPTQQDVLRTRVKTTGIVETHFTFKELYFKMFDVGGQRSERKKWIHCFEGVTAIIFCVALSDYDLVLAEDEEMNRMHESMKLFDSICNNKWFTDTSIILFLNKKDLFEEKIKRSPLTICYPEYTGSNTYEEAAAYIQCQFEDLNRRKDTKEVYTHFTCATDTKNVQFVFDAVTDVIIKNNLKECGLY
An asterisk follows results filed as active. A portion of the library. The share of hits here may be higher or lower than overall.

The opening seven compounds (preview)
GIV Gai3 FP	Structure
110	O=S(=O)(c1ccc(Cl)cc1)N1CCCN(S(=O)(=O)c2ccc(Cl)cc2)CC1
102	CN1C(=O)c2ccccc2Sc2cc(NC(=O)C3CCCO3)ccc21 (configuration not stated)
99	CC1(C)CC(=O)C2=C(C1)c1c(ccc3ccccc13)NC2c1ccc(-c2cc([N+](=O)[O-])ccc2Cl)o1 (configuration not stated)
105	C=Cc1ccc(Cn2c(=O)c3cccnc3n(-c3ccccc3)c2=O)cc1
108	COc1ccc2nc(SCC(=O)Nc3ccc(Cl)c(Cl)c3)[nH]c2c1
101	CCCCN(C)c1ccc2nnc(CCc3nc(-c4ccccc4)no3)n2n1
118	C=CCn1c(SCC(=O)Nc2ccc(OCC)cc2)nc2cc(C(=O)N3CCOCC3)ccc2c1=O

The listing (from the top)
GIV Gai3 FP	Structure
110	O=S(=O)(c1ccc(Cl)cc1)N1CCCN(S(=O)(=O)c2ccc(Cl)cc2)CC1
102	CN1C(=O)c2ccccc2Sc2cc(NC(=O)C3CCCO3)ccc21 (configuration not stated)
99	CC1(C)CC(=O)C2=C(C1)c1c(ccc3ccccc13)NC2c1ccc(-c2cc([N+](=O)[O-])ccc2Cl)o1 (configuration not stated)
105	C=Cc1ccc(Cn2c(=O)c3cccnc3n(-c3ccccc3)c2=O)cc1
108	COc1ccc2nc(SCC(=O)Nc3ccc(Cl)c(Cl)c3)[nH]c2c1
101	CCCCN(C)c1ccc2nnc(CCc3nc(-c4ccccc4)no3)n2n1
118	C=CCn1c(SCC(=O)Nc2ccc(OCC)cc2)nc2cc(C(=O)N3CCOCC3)ccc2c1=O
96	CCCN1CCN(Cc2nc3nc(C)cc(N4CCCC4)n3n2)CC1
101	O=C(NCc1csc(-c2ccccc2)n1)[C@H]1CSCN1C(=O)c1ccccc1
130	COc1ccc(/C=C/C2=NC(=C\c3cc(Br)ccc3OC)/C(=O)O2)cc1
102	Cc1cc(N2CCCCC2)nc(N2CCN(C(=O)C(C)(C)C)CC2)n1
114	COC(=O)c1ccccc1O[C@@H]1O[C@H](COC(C)=O)[C@@H](OC(C)=O)[C@H](OC(C)=O)[C@H]1NC(C)=O
97	COc1cccc(CNC(=O)c2ccc3cccc(O)c3n2)c1
104	Cn1c(NC(=O)CSCc2ccccc2)cc(=O)n(C)c1=O
107	CCC(=O)N1CCc2cc(N3CC(C(=O)NCc4ccc(C)o4)CC3=O)ccc21 (configuration not stated)
262	COC(=O)c1ccc(C(=O)Nc2sc3c(c2-c2nc4ccccc4s2)CCN(C(C)C)C3)cc1
111	Cc1cccc(Oc2ccc(N3C(=O)C4C5c6ccccc6C(c6ccccc65)C4C3=O)cc2)c1 (configuration not stated)
108	COc1ccc(C2C(C#N)=C(N)N(c3cccc([N+](=O)[O-])c3)C3=C2C(=O)CCC3)cc1OC (configuration not stated)
110	COc1ccc(NC(=O)c2cnn3c(C(F)(F)F)cc(-c4ccc(OC)c(OC)c4)nc23)c(OC)c1
98	CCc1cc(C2CCCN2S(=O)(=O)c2ccc(Br)cc2)on1 (configuration not stated)
97	COc1cccc(-n2nnc3c(N4CCN(C(=O)C5CCCCC5)CC4)ncnc32)c1
113	COc1cccc(C2=NN3C(C2)c2cccc(OC)c2OC3c2cc(OC)c(OC)c(OC)c2)c1 (configuration not stated)
112	COc1ccc(CC(=O)c2ccc(OC3OC(CO)C(O)C(O)C3O)cc2O)cc1 (configuration not stated)
100	CNc1nc(C(N)=O)c(NC(=O)COc2ccc(Cl)cc2)s1
105	C=CCOc1ccc(C2N3CC4(C)CN2CC(C)(C3)C4=O)cc1 (configuration not stated)
131	Cc1cc(C)[n+]2c(n1)sc1ccccc12
107	Cc1ccc(NC(=O)c2cc(S(=O)(=O)NC3CCCCC3)ccc2F)cc1C
108	Cc1ccc(C2=NN3C(C2)c2cc(Br)ccc2OC3c2cccs2)cc1 (configuration not stated)
96	CCS(=O)(=O)Nc1cc(-c2nnc(C)o2)sc1C
109	CC1(C)CC(=O)C2=C(C1)c1c(ccc3ccccc13)NC2c1cn(Cc2ccccc2F)c2ccccc12 (configuration not stated)
103	CC1(C(=O)NCc2ccc(F)cc2)CCCN(C(=O)c2ccc(Br)cc2)C1 (configuration not stated)
110	Cc1c(C(=O)O)sc2ncnc(NCCC3=CCCCC3)c12

Ordered by the number under GIV Gai3 FP (low to high): 6 from the list above.
GIV Gai3 FP	Structure
96	CCS(=O)(=O)Nc1cc(-c2nnc(C)o2)sc1C
103	CC1(C(=O)NCc2ccc(F)cc2)CCCN(C(=O)c2ccc(Br)cc2)C1 (configuration not stated)
105	C=CCOc1ccc(C2N3CC4(C)CN2CC(C)(C3)C4=O)cc1 (configuration not stated)
108	Cc1ccc(C2=NN3C(C2)c2cc(Br)ccc2OC3c2cccs2)cc1 (configuration not stated)
110	Cc1c(C(=O)O)sc2ncnc(NCCC3=CCCCC3)c12
131	Cc1cc(C)[n+]2c(n1)sc1ccccc12

(listing goes on)
GIV Gai3 FP	Structure
108	COc1cc(OC)c(NC(=O)N2CCCC2c2cc(C)no2)cc1Cl (configuration not stated)
103	CC1=NN(c2ccccc2)C2(SC(c3ccccc3)=NN2c2ccccc2)c2ccccc21 (configuration not stated)
109	COc1ccccc1Oc1cc(-c2cccc(C(=O)NC(C)c3ccc(C)cc3)c2)ncn1 (configuration not stated)
108	CCOc1cc(C2C(C(=O)N3CCCCC3)=C(C)NC3=C2C(=O)CCC3)cc(Br)c1OC (configuration not stated)
101	Cc1ccc(CNS(=O)(=O)c2cc(C(=O)Nc3ccc(Br)cc3)ccc2F)cc1
101	O=C(NCc1ccco1)C1CCN(c2cnc(N3CCCCC3)nc2)CC1
111	CCOc1ccc2c(c1)C(=C1SC(C(=O)OC)=C(C(=O)OC)S1)C(=S)C(C)(C)N2C(=O)CC(C)C
107	CC(C)NC(=O)c1nc(-c2ccc(S(=O)(=O)N(C)C)cc2)no1
114	CC1=C(C(=O)Nc2ccccc2C)C(c2ccco2)C(C#N)=C(SCC(=O)Nc2ccc(Cl)cc2)N1 (configuration not stated)
103	O=C(Nc1ccc(F)cc1)c1nnc(C2CCCN(C(=O)Nc3ccc(F)c(Cl)c3)C2)s1 (configuration not stated)
104	O=C(Nc1ccc(Cl)cc1)C1OC2OC3(CCCCC3)OC2C2OC3(CCCCC3)OC12 (configuration not stated)
106	COc1cccc(C(C2=C(O)CC(C)(C)CC2=O)C2C(=O)CC(C)(C)CC2=O)c1O (configuration not stated)
106	Cc1sccc1C1C(C#N)=C(N)N(c2ccc([N+](=O)[O-])cc2Cl)C2=C1C(=O)CC(C)(C)C2 (configuration not stated)
115	CCOC(=O)C1=C(CSc2nc(C)cc(C)c2C#N)OC(N)=C(C#N)C1c1ccc(OC)c(Br)c1 (configuration not stated)
104	Cc1noc(C)c1C1CCCN1C(=O)Nc1ccccc1 (configuration not stated)
108	COc1ccc(CC(=O)NCC2(c3ccc(OC)c(OC)c3)CCOCC2)cc1
105	CCc1ccc(NC(=O)CSc2nc3ccccc3c(=O)n2CCC(=O)N2CCN(c3ccccc3)CC2)cc1
127	N#CC1=C(N)C(C#N)(C#N)C(c2ccc[nH]2)C2CCCC=C12 (configuration not stated)
102	CCc1ccc2c(c1)[C@H]1OCC[C@H]1C(c1cccc(O)c1)N2 (some centres not stated)
108	COc1cc(C2N(Cc3ccccc3)CCN2Cc2ccccc2)c([N+](=O)[O-])cc1OC
106	CCOc1cc(C2C(C#N)=C(N)Oc3n[nH]c(C)c32)ccc1OCc1ccc(Cl)cc1 (configuration not stated)
103	Cc1nn(-c2ccc3nnc(C)n3n2)c2c1C(c1ccc(F)cc1)CC(=O)N2 (configuration not stated)
110	COc1ccc(C2C(C#N)=C(N)N(c3cccc([N+](=O)[O-])c3)C3=C2C(=O)CC(C)(C)C3)cc1OC (configuration not stated)
114	COc1ccc(N2C(=O)/C(=C/c3cc(OC)c(OC)c(OC)c3)N=C2c2ccccc2)cc1Cl
103	O=C(CNC(=O)c1cccc(F)c1)N/N=C/c1ccc([N+](=O)[O-])s1
244	Cc1c(C(=O)O)sc2ncnc(Nc3ccccc3)c12
102	NS(=O)(=O)c1ccc(N2N=C(C(F)(F)F)/C(=C/c3ccc(-c4ccc(C(=O)O)cc4)o3)C2=O)cc1
103	Cc1ccc(S(=O)(=O)N2CCOc3ccc(COCc4ccccc4Cl)cc3C2)cc1
108	CN1C(=O)CC2CC1(C)Oc1ccccc12 (configuration not stated)
102	CC1(C)CC(=O)C2=C(C1)Nc1ccccc1N(CC(=O)NCc1ccccc1)C2c1ccccc1 (configuration not stated)
97	CCOC(=O)c1sc2nc(CC(=O)OC)nc(NC(C)CC)c2c1C (configuration not stated)
106	O=C(NC1CCCCC1)c1ccc2c(c1)[nH]c(=S)n1c3ccccc3nc21
110	Cc1ccc(OCCOc2ccc(Oc3nc(N(C)C)nc(N(C)C)n3)nn2)cc1
111	CCOc1ccc(C2C(N3C(=O)c4c(Cl)c(Cl)c(Cl)c(Cl)c4C3=O)C(=O)N2c2ccc(Cl)c(Cl)c2)cc1 (configuration not stated)
103	O=C(NCCC1=CCCCC1)c1ccc(-c2cccc(F)c2)nc1
114	Cc1ccc(N2C(=O)C(N3C(=O)c4ccccc4C3=O)C2c2ccc(F)cc2)cc1C (configuration not stated)
98	Cc1ccnc(Nc2nc(-c3cccc(Cl)c3)cs2)c1
104	CCCCN(C)c1ncnc2onc(-c3ccc(F)cc3)c12
108	O=C(c1c(F)cccc1F)N1CCN(c2cc(N3CCCCC3)c(F)cc2[N+](=O)[O-])CC1
112	Clc1cccc(C2Nc3cccc4cccc(c34)N2)c1
123	CCCc1cc(C2CCCN2Cc2cn[nH]c2-c2ccc(OC)cc2)no1 (configuration not stated)
-73*	COCCCNC(=O)CSc1ccc2c3c(cccc13)C(=O)c1ccccc1-2
98	Cc1nc(-c2cc(S(=O)(=O)NCc3ccc(OC(C)C)cc3)c(C)s2)cs1
107	COc1ccc(NC(=O)C2CCCN(S(=O)(=O)c3cc(-c4noc(C)n4)cs3)C2)cc1OC (configuration not stated)
99	O=c1c2ccccc2nc(/C=C/c2cn(Cc3ccccc3)c3ccccc23)n1CCCO
116	COc1ccc(CC(=O)N2N=C(C)CC2(O)c2cccnc2)cc1OC (configuration not stated)
97	Cc1cc(C2CCCN2S(=O)(=O)c2ccc(Cl)s2)on1 (configuration not stated)
115	Cc1ccccc1NC(=O)CSC1=C(C#N)C(c2cccs2)C2=C(CCCC2=O)N1 (configuration not stated)
102	CCc1cc(Sc2ccc(NC(=O)Nc3ccc(F)cc3F)cc2)n2ncnc2n1
110	CCCCOc1ccc(C2C(N3C(=O)c4c(Cl)c(Cl)c(Cl)c(Cl)c4C3=O)C(=O)N2c2ccc(Br)cc2)cc1 (configuration not stated)
124	COC(=O)c1ccc(-c2c(C#N)c(N)n3c(nc4ccccc43)c2C#N)cc1
101	CC1CCC(NC(=O)COc2ccc(Cl)cc2Cl)(C(=O)Nc2cccc(Cl)c2)CC1 (configuration not stated)
104	CCC(CC)C(=O)N1CCN=C1N1CCCC1
105	CC1CCN(C(=O)c2ccc3ccnc(N4CCN(c5ccc(Cl)cc5)CC4)c3c2)CC1
110	O=C(CCCn1c(=S)[nH]c2ccc(Br)cc2c1=O)NC1CCN(Cc2ccccc2)CC1
128	CCOc1cccc(C2Nc3cccc4cccc(c34)N2)c1O

Later entries
GIV Gai3 FP	Structure
113	O=c1nc2s/c(=C/c3ccccc3Cl)c(=O)n2nc1Cc1ccccc1
102	Nc1c(C(=O)c2ccccc2)oc2ccc([N+](=O)[O-])cc12
105	O=C(CCc1nc(CSc2nc3ccccc3s2)no1)Nc1ccccc1F
118	CC(=O)Nc1ccc(N2C(=O)C3C4c5ccccc5C(c5ccccc54)C3C2=O)cc1Cl (configuration not stated)
128	CC1CCN(CN2C(=O)/C(=C\c3ccc(C(C)(C)C)cc3)SC2=S)CC1
114	CCc1ccc(N/C(SCc2ccccc2Cl)=C(/C#N)C(N)=O)cc1
100	Cc1cc(C)c2c(c1)[C@H]1OCCC[C@H]1C(c1ccc(Cl)cc1)N2 (some centres not stated)
104	CC(NC(=O)CCC(=O)N1CCc2c(c(C(=O)Nc3cccc(F)c3)nn2C)C1)c1ccccc1 (configuration not stated)
99	O=C(Cn1c(=O)n2nc(-c3cccc(F)c3)nc2c2ccccc21)c1cccc(Cl)c1
114	CCOCCn1cnc2sc(C(=O)NCCCN(CC)CC)c(C)c2c1=O
105	Fc1ccc(-c2csc(Nc3ccc(Br)cn3)n2)cc1
104	CCC(=O)Nc1cccc(-c2noc(C3CCN(C(=O)CNC(=O)c4ccccc4)CC3)n2)c1
107	CS(=O)(=O)n1c(SCc2csc(-c3ccc(Cl)cc3)n2)nc2ccccc21
102	COc1ccc(C2=NN3C(C2)c2cc(Cl)ccc2OC3c2ccc(OC)c(OC)c2OC)cc1 (configuration not stated)
99	CC1CC(Nc2ccccc2)c2ccccc2N1C(=O)/C=C/c1ccco1 (configuration not stated)
103	Cc1cc(C)cc(NC(=O)NCc2ccnc(N3CCCCC3)c2)c1
105	CN1C2CCC1CC(N(CCc1c[nH]c3ccccc13)C(=O)c1cc(Cl)cc(Cl)c1)C2 (configuration not stated)
113	COc1ccc(CNC(=O)C2(C)CCCN(S(=O)(=O)c3cnn(C(F)F)c3C)C2)cc1 (configuration not stated)
